Screening results as filed in PubChem BioAssay.
Cruzain inh noDet – cruzain (T. cruzi) inhibition without detergent | AID 1476 | Potency, µM, without a hit: max response, negative = inhibition, usual class: inhibitors | 200,000 tested, 2.3% active | purified cruzain, Z-FR-AMC fluorescence, no detergent; active means well fitted curve in the direction sought with a large enough effect; inconclusive means small, poorly fitted or top-dose-only effect, or another doubt; inactive means no such curve, though single readings can be large; an effect the other way counts as inactive or inconclusive;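 further: plate controls were enzyme without inhibitor for no effect and buffer without enzyme for full effect; nearly all actives have a fitted effect of over 40% in size; top concentration of the series not given in the record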
Target sequence (P25779 123-467 limits assumed): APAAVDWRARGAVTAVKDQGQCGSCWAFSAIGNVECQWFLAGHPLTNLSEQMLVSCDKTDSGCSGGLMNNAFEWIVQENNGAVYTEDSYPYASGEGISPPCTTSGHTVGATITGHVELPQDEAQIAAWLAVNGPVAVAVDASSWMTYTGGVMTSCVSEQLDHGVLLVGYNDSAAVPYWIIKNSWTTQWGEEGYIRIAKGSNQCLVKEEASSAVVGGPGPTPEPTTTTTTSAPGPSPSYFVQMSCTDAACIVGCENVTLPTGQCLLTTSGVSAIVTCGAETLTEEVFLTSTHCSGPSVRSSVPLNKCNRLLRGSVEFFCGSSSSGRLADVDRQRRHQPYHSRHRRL
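Purified cruzain at 1.5 nM, pre-incubated 15 min with compound at room temperature in 100 mM sodium acetate pH 5.5, 5 mM DTT, 0.00005% Triton X-100. Reaction started with 2 uM Z-FR-AMC; AMC fluorescence increase over 60 s gives rate.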
RE007 growth inh – less growth of the S. pombe RE007 Vpr strain; 360,000 tested, 0.21% active; S. pombe RE007 Vpr strain, BacTiter-Glo ATP luminescence, 24 h; control for the full effect not named in the record; Potency, µM (highest dose often 92.2 µM), for inactives: at the top dose activity change, negative = less growth; active = well fitted falling curve with a large enough effect; inconclusive = small, poorly fitted or top-dose-only effect; inactive = no such curve, though single readings can be large or run the other way;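 further: on the % scale 0 is the no-effect control and ±100 the full control effect; nearly all actives have a fitted effect of over 50% in size; the assay follows cell death caused by Vpr and the record does not say whether a fall means rescue or toxicity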
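Fission yeast strain RE007, carrying one chromosomally integrated HIV-1 vpr copy, was seeded at OD 0.01 in PMG+AL medium with 23 nL pinned compound. After 24 h at 30 °C and 99% humidity, viability was read by BacTiter-Glo luminescence.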
SARS PLpro yeast – SARS-CoV PLP inhibition in yeast; Potency, µM (doses to about 32.9 µM), for the others: top-dose activity, positive = growth rescue; S. cerevisiae expressing SARS-CoV PLpro, growth rescue; control for the full effect not named in the record; AID 485353; 330,000 tested, 0.19% active; further: 0% is about no effect; nearly all actives have a fitted effect of over 55% in size; growth read by luminescence after 48 h
Marburg entry inh – Marburg virus entry inhibition. Potency, µM (titrated, usually from 37.8 µM), for the others: at the highest dose activity change, negative = inhibition, usual class: inhibitors. 300,000 tested, 1.8% active. Marburg virus pseudotyped entry inhibition, cell reporter; control for the full effect not named in the record; about a third of the inactives were read at about 46 µM. AID 540276; active = well fitted inhibition curve with a large enough effect; inconclusive = small, poorly fitted or top-dose-only effect, or effect the other way; inactive = flat fitted curve, though single readings scatter; tested in HEK293 cells; about a fifth of its hits are not listed in these tables; further: on the % scale 0 is the no-effect control and ±100 the full control effect; luciferase read-out
NS1 function inh – inhibitors of influenza NS1 protein function | S. cerevisiae slowed by influenza A NS1, growth recovery by OD600 | Potency, µM (top dose mostly 46.1 µM), without a hit: top-dose activity, positive = more growth | 270,000 tested, 0.4% active | AID 2326; further: actives are rising curves; nearly all actives have a fitted effect of over 50% in size
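A cell-based growth assay was used: compounds that relieve NS1-induced slow growth of budding yeast raise OD600. Assay medium was yeast nitrogen base with ammonium sulphate and -URA supplement, pH 6.0, with 2% galactose.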
Cruzain inh Det – inhibitors of Trypanosoma cruzi cruzain with detergent | purified cruzain, Z-FR-AMC fluorescence, 0.01% Triton | P25779 | 200,000 tested, 0.43% active | Potency, µM, without a hit: max response, negative = inhibition, most hits filed as inhibitors; active means well fitted curve in the direction sought with a large enough effect; inconclusive means small, poorly fitted or top-dose-only effect, or another doubt; inactive means no such curve, though single readings can be large; an effect the other way counts as inactive or inconclusive;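 further: plate controls were neutral wells for no effect and buffer without enzyme for full effect; nearly all actives have a fitted effect of over 40% in size; top concentration of the series not given in the record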
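Read-out: AMC fluorescence (360 nm excitation, 450 nm emission), four reads over 2 min, first-to-third difference used. Conditions: cruzain 1.5 nM, Z-FR-AMC 2 uM, pH 5.5 acetate, 5 mM DTT, 0.01% Triton X-100.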
Lassa entry inh – Lassa virus entry inhibition. 300,000 tested, 1.2% active. Lassa virus pseudotype entry inhibition, cell reporter; control for the full effect not named in the record. AID 540256. Potency, µM (doses to about 37.9 µM), for inactives: at the top dose activity change, negative = inhibition, hits mostly inhibitors; active means well fitted inhibition curve with a large enough effect; inconclusive means small, poorly fitted or top-dose-only effect, or effect the other way; inactive means flat fitted curve, though single readings scatter; tested in HEK293 cells; further: on the % scale 0 is the no-effect control and ±100 the full control effect; nearly all actives have a fitted effect of over 50% in size; luciferase read-out
2A StopGo – FMDV 2A StopGo reporter, luciferase signal | human cells with a luciferase reporter of 2A StopGo recoding; control for the full effect not named in the record | Potency, µM (titrated, usually from 57.9 µM), without a hit: at the top dose signal change, negative = less light | 410,000 tested, 1.2% active; active = well fitted falling curve with a large enough effect; inconclusive = small, poorly fitted or top-dose-only effect; inactive = no such curve, though single readings can be large or run the other way; tested in HEK293T cells; further: on the % scale 0 is the no-effect control and ±100 the full control effect; nearly all actives have a fitted effect of over 45% in size; luciferase light after 4 h
The depositor's hits bear a star; ? = inconclusive; . = not tested or not shown; & = joins results of further samples; [ ] = dose if it differs, or a comment. Unless noted, the call rests on the fitted dose curve; in most records, active means well fitted rising curve with a large enough effect; inconclusive means small, poorly fitted or top-dose-only effect; inactive means no such curve, though single readings can be large or run the other way. Potency means the concentration at half of the fitted maximal effect. No enrichment for hits; about 4.7% have a hit in one of these screens.

SMILES	Cruzain inh noDet	RE007 growth inh	SARS PLpro yeast	Marburg entry inh	NS1 function inh	Cruzain inh Det	Lassa entry inh	2A StopGo
O=C(CCC1CCCC1)NCCS(=O)(=O)N1CCN(c2ccc(F)cc2)CC1	.	8%	.	-20%	.	.	-1%	-23%
O=C(CSc1n[nH]c(-c2cccnc2)n1)Nc1ccc([N+](=O)[O-])cc1	.	3%	17%	-15%[46.1 µM]	-3%	.	10%	3%
O=C(CCN1CCOCC1)Nc1ccc2c(c1)N(C(=O)CN1CCOCC1)c1ccccc1CC2	3%	8%	12%	-2%&1%	-7%	0.6%	1%	.
CC1(C)CC(=O)C(C=NCC2CCN(C(=S)Nc3cccc(Cl)c3)CC2)=C(O)C1	.	-17%	21%	?	9%	.	?	13%
CCOc1ccccc1NC(=S)N1CCN(c2ccc(O)cc2)CC1	.	-1%	-1%	.	-1%	.	.	38%[activator]
COc1cccc(NC(=O)CN(C)CC(=O)Nc2ccccc2-c2ccccc2)c1	.	-1%	-1%	?	.	.	-3%[46.1 µM]	-28%
COc1cccc2cc(-c3nnc(-c4ccccc4)o3)c(=O)oc12	.	5%	0%	?	1%	.	-25%[46.1 µM]	-30%
O=S(=O)(N/N=C/c1cccnc1)c1ccc(Cl)c(Cl)c1	.	-15%	1%	-8%[46.1 µM]	-2%	.	?	33%[activator]
COc1cccc(CNC(C)C(=O)Nc2ccc3c(c2)OCCO3)c1 (stereo unspecified)	.	0%	1%	3%[46.1 µM]	.	.	6%	29%
COc1ccc(-c2nn(-c3ccccc3)cc2C(=O)NCC2CCCO2)cc1 (stereo unspecified)	.	-7%	-7%	?	-1%	.	-26%	1%
CCn1c(SCC(=O)N2CCCC2)nc2c1c(=O)n(C)c(=O)n2C	3%	-5%	-2%	1%	-3%	3.7%	-3%	1%
COc1ccc(NC(=S)NNC(=O)c2ccccc2OC(F)F)cc1	-6%	-9%	6%	?	-2%	3.2%	36%[14.3 µM]	55%[activator]
Cc1ccc(NC(=O)COC(=O)c2ccc(-n3nc(C)cc3C)cc2)c(F)c1	.	8%	0%	4%[46.1 µM]	.	.	-28%	-8%
Cc1c(C(=O)N2CCC(C)CC2)oc2ccc3c(c12)C(O)CC1(CCCCC1)O3 (stereo unspecified)	.	2%	-9%	.	-54%	.	.	5%
CCOC(=O)c1c(SCC(=O)Nc2nc(C)cs2)nc(=O)[nH]c1C	.	-6%	-5%	.	1%	.	.	-20%
Cc1ccnc(NC(=O)c2ccccc2NC(=O)c2ccccc2)c1	.	0%	-4%	-12%	-4%	.	0%	15%
Cc1ccc(SCCN2C(=O)NC(C)(C)C2=O)cc1	0%	0%	5%	18%	-2%	1.6%	-19%	-2%
Nc1ccccc1C(=O)N/N=C1\C2CN3CCN(C2)CC1(c1ccccc1)C3	-6%	15%	-16%	9%	4%	-3.2%	20%	20%
CCOc1ccc(C(=O)NCC(=O)Nc2ncccc2C)cc1OCC	.	9%	.	-16%	.	.	-14%[46.1 µM]	3%
O=C(Cn1c(=O)c2ccccc2n2nncc12)Nc1cccc(F)c1	-20%	.	.	10%[46.1 µM]	.	-0.9%	-16%[46.1 µM]	-3%
C/C(=N\Nc1cccc(C(F)(F)F)c1)c1ccc(O)cc1	.	3%	-14%	6%[46.1 µM]	.	.	.	10%
COC(=O)NNC(=O)COc1ccc2ccccc2c1Br	0%	2%	-5%	?	-5%	-4.8%	7%	16%
CCOC(=O)c1ccccc1NC(=O)c1ccc(F)cc1	4%	1%	4%	3%	-2%	2.1%	3%	-22%
Cc1ccc2c(c1)N(C(=O)CCC(=O)NCCCN(C)Cc1ccccc1)CCO2	.	-18%	-5%	.	-2%	.	.	-24%
CC(C)(C)NS(=O)(=O)c1ccc(NC(=S)NC(=O)C2CC2)cc1	.	11%	4%	.	13%	.	.	2%
Cn1c(NCc2c[nH]c3ccccc23)nc2ccccc21	-2%	-18%	25%	?	3%	-1.2%	?	34%[activator]
CCn1c(=NC(=O)CS(=O)(=O)c2ccccc2)sc2cccc(OC)c21	.	-9%	5%	?	.	.	-30%[46.1 µM]	?
CC1CCN(S(=O)(=O)c2cccc(-c3nnc(-c4cccnc4)o3)c2)CC1	16%	-3%	-1%	8%	-7%	1.7%	-10%	?
CCN(CC)c1c([N+](=O)[O-])c(=O)n(C)c2ccccc12	.	8%	1%	?	.	.	15%	?
CC(=O)c1ccc(-n2c(CCC(=O)O)ccc2-c2ccc(Br)cc2)cc1	.	2%	0%	.	-7%	.	.	-21%
COCCCn1c(=N)c(C(=O)NC2CCCC2)cc2c(=O)n3cccc(C)c3nc21	.	.	.	20%[46.1 µM]	.	-10%	?	54%[activator]
Cc1ccnc(NC(=O)CCC(=O)N(CC(=O)NCc2ccc(F)cc2)Cc2ccco2)c1	.	-12%	0%	-16%[46.1 µM]	-9%	.	.	1%
COc1ccc(C)cc1NC(=O)C1CC1c1ccccc1 (stereo unspecified)	.	21%	.	-17%	.	.	-5%	2%
CCOc1ccccc1-n1c(SCC(=O)N2CCOCC2)nc2ccccc2c1=O	.	4%	-2%	0%[46.1 µM]	9%	.	-8%	-20%
COc1ccccc1NC(=O)NCCc1ccccc1	.	11%	-1%	.	20%	.	.	1%
O=C(c1cccs1)C1CN2CCC1CC2 (stereo unspecified)	?	-3%	1%	-8%	?	4.2%	-1%	-3%
O=C(CSc1nc(-c2ccc(F)cc2)cs1)NCC1CCCO1 (stereo unspecified)	.	23%	5%	-16%[46.1 µM]	.	.	0%[46.1 µM]	-17%
CC(NC(=O)C1CC=CCC1C(=O)O)C1CC2CCC1C2 (stereo unspecified)	1%	-9%	-2%	4%	-3%[9.22 µM]	7.8%	13%	-12%
Cc1ccc(CNC(=O)CCCOc2cc(=O)n(C)c3ccccc23)o1	-3%	0%	-2%	-1%	2%	-4.2%	-11%	16%
COC(=O)Cc1ccc(N(Cc2ccccc2F)S(=O)(=O)c2ccc(Cl)cc2)cc1	-2%	3%	-76%	-2%[46.1 µM]	-2%	-2.2%	?	-18%
Cc1ccc(NC(=O)CCc2nnc3n(CC(C)C)c(=O)c4ccccc4n23)cc1C	1%	.	.	-6%[46.1 µM]	.	0.7%	.	-11%
Cc1nc(-c2ccccc2)nc2[nH]ccc(=O)c12	-3%	-6%	13%	-22%	3%	-2.1%	5%	55%[activator]
Cc1cc(-c2ccccc2)nc2oc(C(=O)NN)c(N)c12	.	1%	0%	?	20%	.	-18%[46.1 µM]	-14%
O=C(CCCc1ccccc1)N=C1SC2CS(=O)(=O)CC2N1c1ccccc1 (stereo unspecified)	.	0%	3%	.	8%	.	.	-6%
CC1=C(C(=O)OC(C)C)C(c2cccs2)n2ncnc2N1 (stereo unspecified)	-2%	0%	-1%	0%	2%	4.1%	.	0%
CCOC(=O)C(NC(=O)c1ccc(Cl)cc1Cl)(Nc1ccc(C)cc1)C(F)(F)F (stereo unspecified)	-13%	-11%	9%	.	26%	1.8%	.	-23%
COc1ccccc1CNC(=O)CCn1c(=O)c2ccccc2n(CC(=O)Nc2cccc(Cl)c2)c1=O	-10%	.	.	?	.	?	?	?
CC(=O)Oc1ccc2ccccc2c1C(NC(=O)Cc1ccccc1)c1ccccc1Cl (stereo unspecified)	?	?	-9%	?	-1%	2.3%	-6%	-11%
COc1ccc(C(=O)N/C(=C\c2cn(C)c3ccccc23)C(=O)N2CCN(C)CC2)cc1	.	-2%	-5%	-13%[46.1 µM]	-1%	.	-6%[46.1 µM]	-2%
NC(=O)C1CCN(C(=O)CCSc2ccc(Cl)cc2)CC1	.	-8%	-1%	-3%[46.1 µM]	0%	.	6%	27%
CC1(C)CC(c2nc(-c3ccc(Cl)cc3)cs2)CCS1 (stereo unspecified)	-5%	-18%	-14%	20%	-1%	-2.7%	-22%	?
COc1ccc(-n2c(SCC(=O)Nc3ccc4c(c3)OCO4)nc3c(c2=O)SCC3)cc1	-23%	2%	3%	-2%	17%	-3.2%	.	0%
CSCC(C)N1CCC(n2nccc2NC(=O)CCCc2ccccc2)CC1 (stereo unspecified)	.	-7%	-1%	.	-9%	.	.	-8%
O=C(CSc1nc2ccc(Cl)cc2[nH]1)NCCc1ccc(Cl)cc1	-6%	7%	4%	-19%	21%	-7.8%	-2%	-7%
C=Cc1ccc(Cn2c(=O)n(-c3cccc(Cl)c3)c(=O)c3c4c(sc32)CN(C(C)=O)CC4)cc1	?	.	.	27%[46.1 µM]	.	-6.1%	.	-18%
Cc1ccc(C)c(N2CCN(C(=O)CCS(=O)(=O)c3ccc4c(c3)NC(=O)CO4)CC2)c1	.	1%	-1%	.	12%	.	.	-49%
O=C1NNC(=O)C1c1ccccc1	.	-10%	2%	.	4%	.	.	-13%
COc1cc2c(cc1OC)C(c1ccccc1N)=NCC2	.	8%	0%	-26%	3%	.	0%	-23%
CCN(CC)C(=O)C1CC(=O)OC12CCCCC2 (stereo unspecified)	0%	-1%	-1%	11%	2%	0.9%	-5%	22%
Cc1cccc2sc(NC(=O)CSc3cn[nH]n3)nc12	.	1%	-1%	5%[46.1 µM]	-3%	.	19%[46.1 µM]	40%[activator]
(more compounds)
SMILES	Cruzain inh noDet	RE007 growth inh	SARS PLpro yeast	Marburg entry inh	NS1 function inh	Cruzain inh Det	Lassa entry inh	2A StopGo
O=C1C=CC(=O)N1c1ccc(Nc2ccccc2)cc1	.	11µM*	.	-7%[46.1 µM]	.	.	6%[46.1 µM]	-5%
COc1ccc(C(=O)N2CCc3cc(OC)c(OC)cc3C2c2ccc(OC)c(OC)c2)cc1OC (stereo unspecified)	.	1%	1%	-7%	-4%	.	?	-1%
c1ccc2c(c1)CCN(c1nc3cc4c(cc3s1)OCCO4)C2	?	?	-37%	?	-144%	-2.9%	4.6µM*	7.9µM*
CCN(Cc1ccncc1)C(=O)c1cc(COc2ccc(OC)cc2Cl)on1	.	15%	-5%	-4%	-17%	.	?	16%
CCN(CC)S(=O)(=O)c1ccc2oc(C(=O)Nc3ccc(Br)cc3F)c(C)c2c1	9%	.	.	.	.	-0.2%	3%[46.1 µM]	-27%
Cc1ccc(-c2nc(C)c(CCNC(=O)C(=O)Nc3ccc4c(c3)OCO4)s2)cc1	-10%	.	.	.	.	0.2%	-1%[46.1 µM]	-10%
N#Cc1nc(-c2ccc(COc3ccccc3)o2)oc1NCc1cccnc1	?	.	.	-8%[46.1 µM]	.	-9.1%	-2%[46.1 µM]	-28%
